# 2A firefly: Primary qHTS Assay for Foot and Mouth Disease Virus Antivirals against NCGC Sytravon and CBC Compound Libraries: Firefly Luciferase Signal | HEK cells with a luciferase reporter of 2A StopGo recoding | Potency, µM (doses to about 57.5 µM), inactives show at the highest dose signal change, negative = less light | 120,000 compounds, 0.23% hits; active = well fitted falling curve with a large enough effect; inconclusive = small, poorly fitted or top-dose-only effect; inactive = no such curve, though single readings can be large or run the other way; also: nearly all actives have a fitted effect of over 60% in size; overnight with compound
# StopGo RLuc: Primary qHTS Assay for Foot and Mouth Disease Virus Antivirals against NCGC Sytravon and CBC Compound Libraries: Renilla Luciferase Signal; AID 1745857, 2022; Potency, µM (titrated, usually from 57.5 µM), for the others: at the highest dose signal change, negative = less light; HEK cells with a luciferase reporter of 2A StopGo recoding; 120,000 compounds, 0.32% hits; active means well fitted falling curve with a large enough effect; inconclusive means small, poorly fitted or top-dose-only effect; inactive means no such curve, though single readings can be large or run the other way; also: nearly all actives have a fitted effect of over 55% in size; overnight with compound
# An asterisk follows results filed as active; u = inconclusive; [ ] = another dose, or the depositor's remark. % is scaled to controls: 0 for no effect and ±100 for the full control effect; potency is read from the fitted curve at half-maximal effect. Not all compounds are listed; the hit share may differ from the screen's.
mol | StopGo RLuc | 2A firefly
Cc1cc(Cl)ccc1NS(=O)(=O)c1c(C)cc(N2C(=O)CCS2(=O)=O)cc1C | 4% | 8%
CCOc1cccc(-c2cc(C(=O)O)c3ccccc3n2)c1 | 28% | 156%[activator]
COC(Cn1cc2c(c1-c1ccc(F)cc1)c(=O)n(C)c(=O)n2C)OC | -1% | -1%
CN(C)CCNc1c([N+](=O)[O-])cnc2ccc(Br)cc12 | -15% | -11%
C=CCn1c(SCc2ccc(Cl)cc2)nc2c1c(=O)n(C)c(=O)n2C | 4% | 14%
Sc1ccccc1Cl | -5% | -11%
Cc1ccn2c(Nc3ccc4c(c3)OCO4)c(-c3ccco3)nc2c1 | 27% | 158%[activator]
O=Cc1cccn1-c1cccc(F)c1 | 37%[activator] | 35%[activator]
COc1ccc(C2CCCN2C(=O)NCCn2ccnc2)cc1OC (stereo unspecified) | -3% | -4%
CCC(=O)Nc1cccc(OCc2cc(=O)n3cc(C)ccc3n2)c1 | -10% | 67%[activator]
CC(C)NC(=O)c1cc(F)c(F)cc1Cl | 8% | -4%
COc1ccc(CN(Cc2ccco2)c2cnc(S(C)(=O)=O)nc2C(=O)Nc2ccc(C)c(Cl)c2)cc1 | -13% | -7%

# Remaining list, next part
mol | StopGo RLuc | 2A firefly
O=C(Nc1ccc(C(O)(C(F)(F)F)C(F)(F)F)cc1)c1ccc(Cl)cc1 | u | -15%
Cc1onc(-c2ccccc2)c1-c1nnc(CN2CCC(C(=O)N3CCCCCC3)CC2)o1 | -9% | -23%
Nc1ccccc1C(=O)O | -2% | -7%
Cc1nn(-c2ccccc2)c(C)c1CC(=O)N1CCN(S(=O)(=O)c2ccc(F)cc2F)CC1 | -12% | -10%
COCCn1c(=O)[nH]c(=O)c2c3c(cnc21)C(=O)CC(c1ccccc1)C3 (stereo unspecified) | 15% | 22%
O=c1c2c(-c3ccc(Br)cc3)csc2ncn1-c1ccccc1 | -2% | 1%
O=C(N/N=C/C1CC=CCC1)C1CCCCC1 (stereo unspecified) | 5% | 17%
O=C(Nc1ccc(Cl)c(-c2nc3ccccc3o2)c1)c1cccc2c(Cl)cccc12 | -3% | -24%
CC(C)(C)c1cc(C(=O)O)c(O)c(C(C)(C)C)c1 | -3%[1.06 µM] | -7%
CCc1ccc(-n2ccc(=O)c(C(=O)Nc3nnc(C(C)C)s3)n2)cc1 | 1% | 9%
O=C(NCc1ccccc1)C(=O)NCC(c1cccs1)S(=O)(=O)c1ccccc1 (stereo unspecified) | 7% | 5%
Cc1ccc(S(=O)(=O)N2CCCN(C(=O)CN3CCOCC3)C2c2ccccc2)cc1 (stereo unspecified) | 37%[activator] | 2%

# The listing continues.
mol | StopGo RLuc | 2A firefly
COc1ccc(NC(C)=O)cc1NC(=O)C1(c2cccs2)CCOCC1 | 92%[activator] | 8%
COc1ccc(S(=O)(=O)N2CCn3cccc3C2c2ccc(C)cc2)cc1C (stereo unspecified) | 67%[activator] | 11%
COc1ccc(NC(=O)C(C)SCCO)cc1 (stereo unspecified) | -8% | 28%
Cc1ccccc1CNC(=O)CCSCc1cnn(-c2ccccc2)c1-n1cccc1 | 37%[activator] | -22%
COc1ccc(CCNC(=O)CCc2c(C)nc3cc(-c4ccc(Cl)cc4)nn3c2C)c(OC)c1 | -7% | -14%
NC(=O)C(c1ccccc1)c1ccccc1 | 1% | 5%
CCc1ccc(C(=O)CSc2nc3ccccc3c(=O)n2CCCN2CCOCC2)cc1 | -8% | -6%
Cc1ccc(CNCc2ccc(-c3ccc(F)c(Cl)c3)o2)cc1 | -16% | -11%
Cc1ccc(NC(=S)NCC(C)N2CCCCC2C)cc1Cl (stereo unspecified) | -9% | 4%
CCCCc1ccc(NC(=O)c2nn(CC)c(=O)c3ccccc23)cc1 | 15% | 0%
Cc1nn(Cc2ccc(Cl)cc2)c(C)c1NC(=O)COCc1cc(-c2ccco2)on1 | -17% | -16%
CNC(=O)NC1=C(C#N)C(C)(C)Cc2ccccc21 | 8% | 11%

# The list goes on.
mol | StopGo RLuc | 2A firefly
CCSc1nc(N(CCO)CCO)c2sc3c(c2n1)COC(C)(C)C3 | 19% | 19%
CC(=O)Nc1cccc(-c2nc3cc(C)ccc3o2)c1C | 4% | 0%
CC(C)(C)OC(=O)c1ncn2c1[C@@H]1CCCN1C(=O)c1c(Br)cccc1-2 | 27% | -3%[11.5 µM]
CCCCN(CC)CCNC(=O)Cn1cnc2sc(C)c(S(=O)(=O)N3CCN(c4ccccc4OC)CC3)c2c1=O | -9% | -12%
COc1cc(C(=O)Nc2ccc(N3CCCC3)nc2)cc(OC)c1OC | 0% | 38%[activator]
CCn1ccc2c(OCC(=O)Nc3ccc(OC)cc3OC)cccc2c1=O | 40%[activator] | 14%
Brc1ccc2noc(-c3ccccc3)c2c1 | 3% | 32%[activator]
O=C(Nc1nnc(C2CC2)s1)C1CC(c2ccccc2)=NO1 (stereo unspecified) | 9% | 1%
CN(C)CCCN(C(=O)COc1ccc(Cl)cc1)c1nc2ccc(F)cc2s1 | 0% | 36%[activator]
Cc1nc(C)c(C(=O)C2=C(O)C(=O)N(CCN3CCOCC3)C2c2ccc(C(C)C)cc2)s1 (stereo unspecified) | -10% | -2%
Cc1ccc2oc(=O)c3cc(C(=O)N4CCN(c5ccccc5F)CC4)sc3c2c1 | -11% | -13%
COc1ccc(C(=O)Nc2ccc3c(c2)CCCN3C(=O)c2cccs2)c(OC)c1 | u | -21%

# (next part)
mol | StopGo RLuc | 2A firefly
COc1ccc(NC(=O)CN2CCc3cc(OC)c(OC)cc3C2c2ccccc2)cc1 (stereo unspecified) | u | u
Cc1c(-c2ccccc2)c(=O)oc2ccc(Br)cc12 | 15% | 32%[activator]
CCCC(=O)N(C)CCc1ccccc1 | 8% | 45%[activator]
CCOc1ccc2nc(NC(=O)CS(=O)(=O)c3ccc(Cl)cc3)sc2c1 | u | 8.9µM*
COc1ccccc1CN(C)Cc1ccccc1C | 17% | 26%
O=C(CN1C(=O)C2CCCCN2c2ccc(C(=O)N3CCCC3)cc21)NCc1ccccc1 (stereo unspecified) | 108%[activator] | 33%[activator]
N[C@@H](CSSC[C@H](N)C(=O)O)C(=O)O | -11%[0.46 µM] | -5%[0.112 µM]
Cc1oc2cc(OCC(=O)Nc3ccc4c(c3)OCO4)ccc2c(=O)c1-c1ccccc1 | -5% | 6%
Cc1ccc(Sc2ccc(NC(=O)CCC3CCCCC3)cc2)cc1C | -24% | 8%
Cc1cccc(CCNC(=O)C2CCCN(S(=O)(=O)c3ccc4c(c3)oc(=O)n4C)C2)c1 (stereo unspecified) | -7% | -17%
O=C(OCc1ccc(Cl)cc1Cl)c1c(F)cccc1F | -13%[1.06 µM] | 29%
COc1ccccc1C1=NS(=O)(=O)N(C)C(C(=O)Nc2ccn(Cc3ccc(C)cc3)n2)=C1 | 47%[activator] | -8%

# More results follow:
mol | StopGo RLuc | 2A firefly
CCCn1c2ccccc2c2cnn(CC(=O)NCc3cc(OC)ccc3OC)c(=O)c21 | -10% | -7%
CCCCN(Cc1cc2cc(C)ccc2[nH]c1=O)S(=O)(=O)c1ccc(Cl)cc1 | -9% | -9%
CCCCCCn1c(N2CCN(CC(N)=O)CC2)nc2c1c(=O)[nH]c(=O)n2C | 6% | 8%
CC(C)NC(=O)CNC(=O)c1nc(-c2cccc3[nH]ccc23)no1 | 22% | 66%[activator]
N#Cc1cnn2c(C(F)(F)F)cc(-c3ccccc3)nc12 | -4% | 3%
CN(C)C(CNC(=O)c1cc2ccccc2oc1=O)c1ccccc1 (stereo unspecified) | -13% | 0%
Cc1ccc(N(CC(=O)Nc2cccc(Cl)c2)S(=O)(=O)c2cccs2)cc1 | 63%[activator] | -39%
Cc1cc(C)n(CCc2nnc(Nc3ccn(Cc4ccccc4Cl)n3)s2)n1 | u | u
CCN(CC)C(CNC(=O)c1ccc(=O)n(CCOC)n1)c1ccccc1 (stereo unspecified) | -15% | -12%
CNC(=O)c1ccc(NC(=O)c2nn(C(C)C)c(=O)c3ccccc23)cc1 | 16% | 20%
Cc1ccc(S(=O)(=O)N2CCN(C(=O)c3cc4c(s3)CCC4)CC2)cc1 | 14% | 4%
Cc1ccsc1-c1nc(-c2ccc3c(c2)OCCCO3)cs1 | 9% | 15%

# Next structures follow.
mol | StopGo RLuc | 2A firefly
CCS(=O)(=O)c1ccc2oc(Nc3cccc(OC)c3)nc2c1 | 5% | 150%[activator]
O=C(Nc1cccc2cnccc12)c1cccc(S(=O)(=O)N2CCCCC2)c1 | u | u
COc1ccc(CNC(=O)c2nc(-c3ccc4cc[nH]c4c3)no2)cc1OC | u | u
C/C=C/c1ccc(O)c(OC)c1 | -6% | -15%
Cc1ccc(Cl)cc1NC(=O)Nc1nnc(N2CCCC(C)C2)s1 (stereo unspecified) | 5% | 9%
Fc1ccc(CSc2nnc(-c3cccnc3)o2)cc1Br | -2% | 17%
CCn1c(C)cc(C(=O)Cn2cnc3c2c(=O)n(C)c(=O)n3C)c1C | -9% | -1%
CCN(c1ccccc1)S(=O)(=O)c1ccc(/C=C\c2onc(C)c2NC(=O)C2CC2)cc1 | 0% | u
Cc1ccc(NC(=O)c2ccc3c(c2)CCC3)cc1C | 16% | 119%[activator]
O=C(COc1ccccc1F)Nc1nnc(SCc2cc(=O)c3ccccc3[nH]2)s1 | 5% | 0%
CCC(Sc1nc2ncccc2o1)C(=O)Nc1cccc(C)c1 (stereo unspecified) | 40%[activator] | 67%[activator]
Cn1cc(C(=O)N2CCN(Cc3ccc(Cl)cc3)CC2)c(-c2ccc3c(c2)OCCCO3)n1 | 0% | -4%

# Later entries:
mol | StopGo RLuc | 2A firefly
O=C(Cn1c(=O)n(-c2ccc(Cl)cc2)c(=O)c2c3c(sc21)CCC3)c1ccccc1 | -15% | -18%
Cc1cc(C)cc(OCC(=O)Nc2cccc3ccc(C)nc23)c1 | 2% | 6%
O=C(Nc1onc2c1CCCC2)c1ccc(Cl)cc1Cl | 41%[activator] | 0%
COc1ccc(-c2noc(N3CCN(c4ccc(C)cc4)C(C)C3)n2)cc1OC (stereo unspecified) | -8% | -9%
Cc1ccc(NC(=O)/C=C\C(=O)N(c2ccc(C(C)C)cc2)C(C(=O)NCc2ccco2)c2ccc(F)cc2)cc1 (stereo unspecified) | 2% | -16%
Cn1c(=O)c2[nH]c(N3CCN(c4ccc(F)cc4)CC3)nc2n(C)c1=O | -5% | 5%
CCN(C(=O)C1CCCN(S(=O)(=O)c2c(C)noc2/C=C/N(C)C)C1)c1cccc(C)c1 (stereo unspecified) | 2% | -17%
CN1CCN(CC(O)CN)CC1 (stereo unspecified) | 17% | 1%
CC(NC(=O)CN1CCN(S(=O)(=O)c2ccc(C(C)(C)C)cc2)CC1)c1cccs1 (stereo unspecified) | 16% | 9%
CC1CCC(NC(=O)CCCc2c[nH]c3ccccc23)CC1 (stereo unspecified) | -2% | 37%[activator]
CN(C)CCCNC(=O)Cn1c(-c2ccccc2)cc2ccccc21 | -8% | -8%
COc1ccc2c(C)c(CC(=O)N(C)C3CCS(=O)(=O)C3)c(=O)oc2c1 (stereo unspecified) | 7% | 11%

# The last six records of the part above lead into the next:
mol | StopGo RLuc | 2A firefly
CCN(C(=O)C1CCCN(S(=O)(=O)c2c(C)noc2/C=C/N(C)C)C1)c1cccc(C)c1 (stereo unspecified) | 2% | -17%
CN1CCN(CC(O)CN)CC1 (stereo unspecified) | 17% | 1%
CC(NC(=O)CN1CCN(S(=O)(=O)c2ccc(C(C)(C)C)cc2)CC1)c1cccs1 (stereo unspecified) | 16% | 9%
CC1CCC(NC(=O)CCCc2c[nH]c3ccccc23)CC1 (stereo unspecified) | -2% | 37%[activator]
CN(C)CCCNC(=O)Cn1c(-c2ccccc2)cc2ccccc21 | -8% | -8%
COc1ccc2c(C)c(CC(=O)N(C)C3CCS(=O)(=O)C3)c(=O)oc2c1 (stereo unspecified) | 7% | 11%
O=C(CSc1nnc2c3c4c(sc3ncn12)CCCC4)Nc1cccc(Cl)c1 | -2% | 13%
COc1ccc(C)cc1NC(=O)c1cc(S(=O)(=O)NCCC2=CCCCC2)ccc1F | 277%[activator] | 8%
CNC(=O)NC(=O)C(C)OC(=O)c1ccc(COc2ccc3c(C)cc(=O)oc3c2)cc1 (stereo unspecified) | -2% | 68%[activator]
CCOC(=O)c1ccc(N2CCN(c3cc(Cl)ccc3C)CC2)c(NC(=O)Nc2ccc(OCC)cc2)c1 | 4% | -18%
Cc1ccc2[nH]cc(C(C(=O)O)N3CCN(C(c4ccccc4)c4ccccc4)CC3)c2c1 (stereo unspecified) | 11% | -8%
Cc1cc(C)cc(N(C)C(=O)C2CCN(c3nc4ccccc4o3)CC2)c1 | -13% | -9%
O=C(CSc1ccc(-c2cccs2)nn1)Nc1cccc(F)c1 | u | u
Cc1ccc(-n2nc(-c3cccc(C)c3)c(C)c2-c2cccc(C)c2)cc1 | 16% | 12%
CN1C(=O)c2ccccc2N2C(=O)CCC12C(=O)Nc1ccccc1F (stereo unspecified) | -14% | 48%[activator]
CC(=O)c1ccccc1NC(=O)CSc1ncnc2ccccc12 | 9% | 13%
O=C(NCc1ccncc1)c1cc(-c2ccccn2)nc2ccccc12 | 13% | 9%
CC1=C(c2ccc(C)c(C)c2)S(=O)(=O)NC1=NCC(=O)NCc1ccccc1C | 59%[activator] | 2%

# Further records.
mol | StopGo RLuc | 2A firefly
O=C(O)CCSCc1c[nH]c2ccccc12 | -2% | 17%
CCCCN(CC)C(=O)C1CCCN(c2ncnc3c2nc2n3CCCCC2)C1 (stereo unspecified) | -5% | -12%
Cc1ccc2oc(C(=O)Nc3ccc(S(=O)(=O)N4CCCCCC4)cc3)cc(=O)c2c1 | -11% | -21%
Cc1nn(-c2ccc(C(=O)OCC(=O)NC(=O)NC3CCCCC3)cc2)c(C)c1Cl | -3% | -7%
CCc1ccc(NC(=O)CSc2ccnc(=O)[nH]2)cc1 | -5% | 103%[activator]
